HSD17B inhib: blocks hydroxysteroid 17-beta dehydrogenase activity; Q99714; recombinant HSD17B10, NADH fluorescence kinetic; many of its hits are not listed in these tables; Potency, µM (top dose mostly 57.1 µM), for inactives: at the top dose activity change, negative = inhibition, usual class: inhibitors; 75,000 tested, 7.6% active; AID 893; active means well fitted inhibition curve with a large enough effect; inconclusive means small, poorly fitted or top-dose-only effect; inactive means no such curve, though single readings can be large or run the other way;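 further: the protocol describes HADH2 (HSD17B10) and not the HSD17B4 of the title; nearly all actives have a fitted effect of over 70% in size; most hits overshoot -100% by far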
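Activity followed as NADH fluorescence increase (ex 360, em 450 nm) every 30 seconds for 4 min, using final 90 uM beta-hydroxybutyryl CoA and 1 mM NAD+. Recombinant His-tagged enzyme, 20 nM, pH 9.0 Tris buffer, 15 min compound preincubation.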
An asterisk follows results filed as active; ? = inconclusive; [ ] = another dose, or the depositor's remark. On the % scale 0 is the no-effect control and ±100 the full control effect; potency means the concentration at half of the fitted maximal effect. Only part of the results is shown; the hit share may differ from the screen's.

SMILES | HSD17B inhib
c1ccc(-c2nnc3ccc(N4CCC5(CC4)OCCO5)nn23)cc1 | -4.6%
CCOC(=O)N1CCC(NC(=O)CCC(=O)c2ccccc2)CC1 | 8.5%
CCc1nn(-c2cc(Cl)ccc2OC)c2c1C(=O)CCC2 | 4.3%
Cn1c(CN2CCCCC2)nc2cc(NC(=O)c3ccc(F)cc3)ccc21 | 6.4%
OC1(Cc2ccn[nH]2)CCCCC1 | -9.7%
CN(C)C=Nc1ncc2c([nH]c3ccccc32)c1C#N | 25.1µM*
COc1ccc(NS(=O)(=O)c2cccc(-c3nnc4n3CCCCC4)c2)cc1 | 0.9%
O=C(NCc1ccc(F)cc1)c1ccc(CS(=O)(=O)Cc2ccc(F)cc2)o1 | 7.4%
CCOc1cc(N2CCOCC2)c(OCC)cc1NC(=O)CCC1CCCC1 | -0.3%
CN1CCN(C(=O)c2ccc3c(=O)n(CCc4ccccc4)c(=S)[nH]c3c2)CC1 | 2.9%
CCOC(=O)N1CCN(CCC(=O)c2ccc(Cl)cc2)CC1 | -17.4%
O=c1oc2ccccc2n1CCc1ccccc1 | 0.1%
CC1CN=C(N(C(=O)Nc2ccccc2)c2ccc(S(=O)(=O)N3CCOCC3)cc2)S1 (stereo not drawn) | -2.3%
Cc1ccc(S(=O)(=O)N2CCOCC2)c(C)c1-n1cnnn1 | 8.7%
CCOC(=O)c1ccc2c(c1)NC(=O)C(N1CCN(c3ccc(OC)cc3)CC1)S2 (stereo not drawn) | 3.0%
CCc1ccc(N2CC34C=CC(O3)C(C(=O)OC(C)C)C4C2=O)cc1 (stereo not drawn) | 4.4%
OCCNc1nc(N2CCN(Cc3ccccc3)CC2)nc2ccccc12 | 5.7%
O=C(c1ccco1)N1CCN(C(=O)C2CCN(S(=O)(=O)c3cccs3)CC2)CC1 | -5.0%
Cc1ccc(S(=O)(=O)N(C)Cc2nc(-c3ccncc3)no2)cc1 | 5.7%
CCOc1ccc(N2CC(C(=O)Nc3ccccc3F)CC2=O)cc1 (stereo not drawn) | -4.1%
CCn1c(COc2cccc(OC)c2)nnc1SCC(=O)Nc1cc(OC)ccc1OC | 11.9%
Cc1cccc(C(C)(C)C)c1OCCn1ccnc1 | -5.9%
Cc1ccc(C2C(C(=O)c3sc(C)nc3C)=C(O)C(=O)N2CCN2CCOCC2)o1 (stereo not drawn) | 3.8%
CCN(CC)S(=O)(=O)c1ccc2c(c1)nc(SCC(=O)NC1CC1)n2-c1ccccc1OC | -9.3%
CCCc1nc(Nc2nc3ccccc3o2)nc(C)c1C(=O)OCC | ?
CCCCNC(=O)c1ccc(Cc2nc3ccccc3[nH]2)cc1 | 8.4%
O=C1CCCC=C1[C@@H](O)CCOC(c1ccccc1)(c1ccccc1)c1ccccc1 | -10.6%[11.4 µM]
COc1ccccc1NC(=O)CC1Nc2ccccc2NC1=O (stereo not drawn) | 3.7%
CC1Oc2ccccc2N(CC(=O)Nc2ccc3c(c2)OCO3)C1=O (stereo not drawn) | 7.8%
CCOC(=O)CSCc1c(C#N)c2ccccc2n1C | -1.5%
Cc1ccc(S(=O)(=O)N2CCC(C(=O)N3CCC(C(=O)NCc4cccnc4)CC3)CC2)cc1 | 13.7%
COc1cccc(NC(=O)C2CCCN2C(=O)OCc2ccccc2)c1 (stereo not drawn) | 1.3%
CCOC(=O)c1[nH]nc(C(=O)c2ccc(Br)cc2)c1O | 5.0%
COc1nc(-c2ccc(C)cc2)ccc1-c1noc(-c2ccco2)n1 | 20µM*
O=C(O)c1nn2c(c1Br)NC(c1ccccc1)CC2C(F)(F)F (stereo not drawn) | 0.1%
CC(CCN)(CCN)[N+](=O)[O-] | -5.2%[11.4 µM]
CN1CCN(c2ccccc2NC(=O)c2ccc(OCc3ccccc3)cc2)CC1 | ?
COc1cc(OC)cc(-c2nnc(SCC(=O)Nc3cc(C)on3)o2)c1 | -3.1%
O=C(c1cccnc1NCc1ccc(F)cc1)N1CCOCC1 | -28.5%
Cc1ccc(C)c(NS(=O)(=O)c2cc(C(=O)O)ccc2Cl)c1 | 8.9%
CC(=O)c1ccc(-n2nnnc2SCC(=O)N2CCc3ccccc3C2)cc1 | -7.2%
CC(=O)OCC(OC(C)=O)C(OC(C)=O)C(OC(C)=O)C(OC(C)=O)C(COC(C)=O)OC(C)=O (stereo not drawn) | 2.1%
CCc1ccc(-c2nc(CN3CCC(C(=O)NCCN(CC)c4ccccc4)CC3)c(C)o2)cc1 | -4.8%
COc1ccc(C)cc1NC(=O)C1CCCN(S(=O)(=O)c2cnc[nH]2)C1 (stereo not drawn) | 0.0%
O=C(O)c1cc(S(=O)(=O)NCc2ccco2)c(Cl)cc1Cl | ?

Of the compounds above, these have a cyano group.
SMILES | HSD17B inhib
CN(C)C=Nc1ncc2c([nH]c3ccccc32)c1C#N | 25.1µM*
CCOC(=O)CSCc1c(C#N)c2ccccc2n1C | -1.5%

Next structures:
SMILES | HSD17B inhib
CC(C)n1c(SCC(=O)c2ccc3c(c2)OCCO3)nc2c1c(=O)n(C)c(=O)n2C | 1.3%
COc1ccccc1NC(=O)c1ccc(S(=O)(=O)N2CCOCC2)cc1 | -4.2%
O=C(c1ccc(COc2ccc(F)cc2)o1)n1cccn1 | 2.5%
N#Cc1ccsc1NC(=O)COc1ccc(-c2nnco2)cc1 | -21.2%
CCOc1ccc(N(CC(=O)Nc2ccccc2)S(C)(=O)=O)cc1 | -5.7%
CCOC(=O)c1ccc(NC(=O)CCc2nc(-c3cccc(C)c3)no2)cc1 | 3.8%
CCOC(=O)N1CCC(NC(=O)c2cc(C(=O)Nc3ccc(F)cc3F)ccc2CO)CC1 | -29.2%
CCN1C(=O)c2ccc(-c3nc4ccccc4c(=O)o3)cc2C1=O | 20µM*
COCCNC(=O)c1cc2c(=O)n3cccc(C)c3nc2n(Cc2ccncc2)c1=N | 7.1%
CCOC(=O)C1CCN(C(=O)COc2cccc(C)c2)CC1 | 8.7%
CN(CCCNC(=O)c1ccc(N2CCCC2=O)cc1)c1ccccc1 | 0.0%
Cc1nnc(NC(=O)C2CCCN(S(=O)(=O)Cc3ccccc3)C2)s1 (stereo not drawn) | 10.3%
O=C(NCCN1CCc2ccccc2C1)C1CC(=O)N(C2CCCC2)C1 (stereo not drawn) | 5.8%
C=CCNC(=O)c1ccc(C(=O)c2ccccc2)cc1 | 6.8%
CS(=O)(=O)N1CCC(C(=O)Nc2ccc(Br)cc2F)CC1 | 17.7%
CCOC(=O)C1C(c2ccc(C)o2)NC(=O)NC1(O)C(F)(F)F (stereo not drawn) | 7.6%
CCOC(=O)c1c(C)cc(OC)cc1O | -6.7%
CCCOc1cc(C)c(S(=O)(=O)n2ccc(C)n2)cc1C | -2.2%
COc1ccc(NC(=O)N[C@@H](CCSC)C(=O)O)cc1Cl | -2.1%
COCCNC(=O)Cn1cnc2sc(C)c(S(=O)(=O)N3CCC(C)CC3)c2c1=O | 4.3%
Cc1ccc(-n2c(SCC(N)=O)nc3c([nH]c4ccccc43)c2=O)cc1 | 0.2%
c1ccc(-c2nc(NCc3ccco3)c3ccccc3n2)nc1 | 9.1%
Brc1cc2[nH]cnc2c2ccccc12 | 3.3%
O=c1c2c(nc3nc(COc4ccccc4)[nH]n13)CCC2 | -10.9%
CC(=O)N1CCN=C1SCc1c(F)cccc1Cl | 5.9%
Cc1csc(N(C)C(=O)CSc2nnc(COc3ccccc3C)o2)n1 | -1.4%
c1ccc(CCN2CCN=C2Cc2ccccc2)cc1 | 7.6%[11.4 µM]
CNC(=O)CSc1nnc(-c2ccco2)n1-c1ccccc1OC | 7.0%
Cc1cc(C(=O)CSc2nnnn2-c2ccc(O)cc2)c(C)n1Cc1ccc2c(c1)OCO2 | 2.8%
CCC(=O)N1CCc2cc(Br)cc(S(=O)(=O)NCC3CCCO3)c21 (stereo not drawn) | 3.2%

A portion from further up, for reference:
SMILES | HSD17B inhib
c1ccc(-c2nc(NCc3ccco3)c3ccccc3n2)nc1 | 9.1%
Brc1cc2[nH]cnc2c2ccccc12 | 3.3%
O=c1c2c(nc3nc(COc4ccccc4)[nH]n13)CCC2 | -10.9%

Next section.
SMILES | HSD17B inhib
COC(=O)c1ccc(C)c(NC(=O)C2COc3ccccc3O2)c1 (stereo not drawn) | 4.4%
O=c1c(CCc2ccccc2)nc2cncnc2n1C1CC1 | 3.6%
Cc1occc1-c1nnc(SCC(=O)c2ccc(Cl)cc2)n1CC1CCCO1 (stereo not drawn) | -18.6%
COC(=O)C(C)NC(=O)C(C)NC(=O)OCc1ccccc1 (stereo not drawn) | 1.7%
COc1ccc(-c2cc(C(=O)Nc3c(C)nn(Cc4ccccc4)c3C)no2)cc1 | -19.8%
CCOC(=O)c1[nH]c2ccc(OC)cc2c1NC(C)=O | 25.1µM*
Cc1ccc(-c2noc(C3CCN(S(=O)(=O)c4ccc5c(c4)OCCO5)CC3)n2)o1 | -2.1%
Cn1nc(-c2ccc(C(=O)N3CCN(c4ccccc4)CC3)cc2)c2ccccc2c1=O | 3.9%
O=C(NC(C(=O)c1ccccc1)n1cnccc1=O)c1ccccc1 (stereo not drawn) | -3.4%
CC1CCCN(C(=O)Cn2nnc(-c3cccnc3)n2)C1 (stereo not drawn) | 2.3%
Cc1cc(C)c2c3c(sc2n1)C1(CCSCC1)C(C#N)=C(N)O3 | -19.5%
Cc1ccc(S(=O)(=O)N(C)CC(=O)NC2CCCC2)cc1 | 4.1%
O=C(CC1(O)C(=O)N(CN2CCOCC2)c2ccccc21)c1ccccc1 (stereo not drawn) | -4.7%
C=C(C)C1(O)OC(=O)C=C1OC (stereo not drawn) | -1.1%
Cc1ccc(C)n1-c1ccc(-c2nnco2)cc1 | -15.4%
Cn1c(/C=C/N2CCOCC2)c(C(=O)c2ccc(Br)cc2)c(=O)n(C)c1=O | -13.7%
CC(C)NC(=O)CN(c1cccc(Br)c1)S(C)(=O)=O | 4.5%
CC(C)(NC(=O)N1CCCC1)c1cccc(C(C)(C)NC(=O)N2CCCC2)c1 | 2.4%
O=C(CSc1nnc(-c2cccs2)n1Cc1ccco1)Nc1ccc2c(c1)OCO2 | -3.1%
c1ccc(CCn2nnnc2C(c2cccnc2)N2CCN(c3nc4ccccc4s3)CC2)cc1 (stereo not drawn) | 12.0%
CCOc1ccc(NC(=O)Nc2ccc(N(C)C(C)=O)cc2)cc1 | 7.7%
CCOC(=O)c1c(-c2ccccc2)[nH]c2ccc(O)cc12 | 25.1µM*
O=C(Nc1cc2nn(-c3ccccc3)nc2cc1Cl)c1ccco1 | ?
OCc1n[nH]c(CO)n1 | -6.9%
COC(=O)Nc1nnc(Cc2ccc(OC)cc2)s1 | 6.7%
CCOc1ccccc1-n1c(COc2ccc(C)cc2)nnc1SCC(N)=O | 8.8%
Cn1nnnc1SCC(=O)c1c(N)n(C)c(=O)n(C)c1=O | 11.8%
CC(C(=O)OCc1nnc(-c2ccccc2)o1)N1C(=O)c2ccccc2C1=O (stereo not drawn) | 5.1%
COc1ccc(N2CCN(C(=O)Cn3nnc(-c4cccs4)n3)CC2)cc1 | 1.5%
CN(CCCNC(=O)CN1C(=O)CC(C)(C)S(=O)(=O)c2ccccc21)C1CCCCC1 | 7.3%
O=C(NCc1ccc(N2CCCC2=O)cc1)c1cn(CCc2ccccc2)nn1 | 13.3%
c1ccc(-c2nnnn2CCOCCn2nnnc2-c2ccccc2)cc1 | 11.3%
COCCN(CC(=O)Nc1ccccc1)S(=O)(=O)c1ccc(S(=O)(=O)N2CCCC2)cc1 | -10.2%
O=c1c2c3nc4ccccc4nc3n(-c3ccc4c(c3)OCCO4)c2ncn1C1CCCC1 | -3.1%
COC(=O)c1ccc(NC(=O)NS(=O)(=O)c2ccc(C)cc2)cc1 | -0.4%
Cc1nc(N2CCc3ccccc3C2)[nH]c(=O)c1CCC(C)C | 5.3%
CCOC(=O)C1=C(C)NC(=O)NC1c1ccc(OCCO)c(OC)c1 (stereo not drawn) | 2.8%
Nc1c(C(=O)OCC2CCCO2)c2nc3ccccc3nc2n1C1CCCCC1 (stereo not drawn) | 3.16µM*
O=C(NC1CCCC1)C1CCCN1S(=O)(=O)c1cccc2cccnc12 (stereo not drawn) | 1.7%
CC(C)(C)NC(=O)CN(C(=O)C1CSC(=O)C1)c1ccc2c(c1)OCCO2 (stereo not drawn) | 5.9%
O=C(Nc1cc(Cl)ccc1N1CCOCC1)c1cnccn1 | -5.2%
COc1ccc(OCC(=O)Nc2ccccc2C(=O)N2CCCC2)cc1 | 6.6%
Cn1[nH]c(=O)c2ccccc2c1=O | -2.6%
Nn1c(SCC(=O)Nc2ccc(F)cc2F)nnc1-c1cccnc1 | 4.6%
Cc1c(C(=O)OCC2CCCO2)[nH]c2c1C(=O)CC(c1ccc(N(C)C)cc1)C2 (stereo not drawn) | -0.3%
CCCCCn1c(CN2CC(C)OC(C)C2)nc2c1c(=O)n(C)c(=O)n2C (stereo not drawn) | -1.4%
Cn1ncc2c(Nc3ccc(-c4ccccc4)cc3)ncnc21 | ?
O=C(CSc1ncccn1)NCc1ccc(F)cc1 | -5.1%
CCc1ccccc1OCCCCCNCCO | -13.5%
O=C(Nc1nn[nH]n1)c1cccc(Oc2ccccc2)c1 | -1.6%
CCOC(=O)C1CCN(C(=O)CCCCn2c(=O)[nH]c3ccccc3c2=O)CC1 | ?

Shown tab-delimited: entries from further up
smiles	HSD17B inhib
CCCCCn1c(CN2CC(C)OC(C)C2)nc2c1c(=O)n(C)c(=O)n2C (stereo not drawn)	-1.4%
Cn1ncc2c(Nc3ccc(-c4ccccc4)cc3)ncnc21	?
O=C(CSc1ncccn1)NCc1ccc(F)cc1	-5.1%
CCc1ccccc1OCCCCCNCCO	-13.5%
O=C(Nc1nn[nH]n1)c1cccc(Oc2ccccc2)c1	-1.6%
